# Screening results as filed in PubChem BioAssay.
# PrP 5UTR inh: inhibition of PrP 5' UTR reporter expression; 340,000 tested, 0.35% active; AID 488862; inhibition, % (no concentration beside the values); cell-based PrP 5' UTR mRNA reporter, plate reader;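 active = every replicate at 50% or more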;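 note: 0 = median of the neutral control wells; tested in H4 reporter cells; numbers are from one replicate; inactives centre near -14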
# Autofluor counter: flagged as autofluorescent in microsphere protease counterscreen | compound autofluorescence counterscreen, microsphere flow cytometry; hits give high values | fluorescence intensity (no concentration beside the values) | 360,000 tested, 3.1% active | AID 624483;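 active = at least 3 SD above the mean of all compounds, about 16000 in these data; inconclusive = too few beads counted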;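 note: 100 nL of 1 mM stock went into each well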
# RN4220 kill: kills Staphylococcus aureus RN4220; S. aureus RN4220 growth, OD600, 16 h; inhibition, % (concentration not given with the values); 330,000 tested, 0.33% active; AID 1259311;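 active = z-score of -3 or lower and OD600 up to 0.18 on both plates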;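 note: plate controls were untreated cells for no effect and reference antibiotic for full effect; stock transfer was 100 nL into about 80 µL; one replicate is shown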
# Mtb hypoxia inh: Mtb hypoxia fluorescent reporter inhibition | M. tuberculosis hypoxia-regulated fluorescent reporter, fluorescence | fluorescence inhibition, % (concentration not given with the values) | 300,000 tested, 0.1% active | AID 1159583;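 active = 35 to 45% if threefold the growth effect, above 45% if 1.5-fold the growth effect; inactive = the rest, general growth blockers included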;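 note: wells of about 50 µL received 100 nL stock; 0% = vehicle wells and 100% = reference inhibitor wells; whole bacteria with a GFP reporter of the hypoxia response; strong numbers were not always called active; many hits fall short of the cut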
# ugtP null kill: growth inhibition of S. aureus ugtP deletion strain; AID 1259309; 330,000 tested, 0.54% active; S. aureus RN4220 ugtP deletion, OD600 growth, 16 h; some inactives read as strong as hits; growth inhibition, % (concentration not given with the values);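 active = z-score under -3 and OD600 up to 0.15 on both plates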;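 note: plate controls were untreated wells for no effect and antibiotic for full effect; wells of about 80 µL received 100 nL stock; the first replicate is given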
# BJeLR lethal: BJeLR cell viability loss | BJeLR (HRASV12) viability, CellTiter-Glo ATP luminescence, 48 h; reference of the scale not given here | AID 1554 | inhibition, % (concentration not given with the values) | 300,000 tested, 0.17% active;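 active = replicate mean above 50%; inconclusive = above 50% but judged a plate artefact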;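 note: 50 nL library stock added to about 25 µL; numbers are from one replicate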
# Mtb hypoxia inh growth: second read-out of Mtb hypoxia inh, no call of its own (marks repeat the call); growth inhibition, %; measured here: M. tuberculosis growth (absorbance);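 0% = vehicle and 100% = reference antibiotic; read after six days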
# The depositor's hits bear a star; u = inconclusive; x = not tested or not shown.
compound	PrP 5UTR inh	Autofluor counter	RN4220 kill	Mtb hypoxia inh	Mtb hypoxia inh growth	ugtP null kill	BJeLR lethal
CC(C)c1ccc(NC(=O)COc2ccc(S(=O)(=O)N3CCOCC3)cc2)cc1	-9	3683	-1.0	6	-1	7	6
CCCn1c(=O)[nH]c(=O)c2c1nc(-c1ccc(OC)c(Br)c1)n2CCOC	-25	3616	6.4	-5	2	-2	0
CC(C)(C)c1cc(=O)n2c(C#N)c(C#N)nc2[nH]1	-1	3822	6.3	5	8	-1	1
CCC(Oc1ccccc1)C(=O)Nc1nnc(C)s1 (stereo unspecified)	-1	9385	-1.6	1	-3	1	-4
O=C1CC(Nc2ccc3ccccc3c2)C(=O)N1Cc1ccccc1 (stereo unspecified)	-4	6777	3.8	12	2	-2	-16
CCOC(=O)C(NC(C)=O)C(OC(C)=O)c1cccc(N(CCO)CCO)c1 (stereo unspecified)	1	2743	2.2	x	x	3	3
COc1ccc(C=NNC(=O)c2cc3cc(OC)c(OC)cc3[nH]2)cc1	x	x	-2.1	19	21	-16	x
COc1ccc(N(CC(=O)NCCC2=CCCCC2)S(=O)(=O)c2ccccc2)cc1OC	-9	4367	6.5	1	17	2	3
CCOc1ccc(CON=Cc2c(C)[nH]c(=O)[nH]c2=O)cc1	x	x	6.7	7	1	10	x
COc1ccccc1N1CCN(C(CNS(C)(=O)=O)c2cccnc2)CC1 (stereo unspecified)	-9	2947	3.6	6	-1	-1	-1
COc1cccc(C(=O)OCC(=O)c2c(N)n(C)c(=O)n(C)c2=O)c1	-19	3708	1.0	0	2	-3	x
CC(C)OC(=O)CSc1nnc(-c2cnccn2)n1C	-9	3442	-13	16	7	-4	0

# Full records, quoted from the list.
# Results for COc1ccccc1N1CCN(C(CNS(C)(=O)=O)c2cccnc2)CC1 (stereo unspecified) : PrP 5UTR inh = -9; Autofluor counter = 2947; RN4220 kill = 3.6; Mtb hypoxia inh = 6; Mtb hypoxia inh growth = -1; ugtP null kill = -1; BJeLR lethal = -1
# Results for O=C1CC(Nc2ccc3ccccc3c2)C(=O)N1Cc1ccccc1 (stereo unspecified) : PrP 5UTR inh = -4; Autofluor counter = 6777; RN4220 kill = 3.8; Mtb hypoxia inh = 12; Mtb hypoxia inh growth = 2; ugtP null kill = -2; BJeLR lethal = -16

# The list continues:
compound	PrP 5UTR inh	Autofluor counter	RN4220 kill	Mtb hypoxia inh	Mtb hypoxia inh growth	ugtP null kill	BJeLR lethal
Cc1cc(C)c2nc(N3C(=O)C(O)=C(C(=O)c4ccco4)C3c3ccco3)sc2c1 (stereo unspecified)	-30	5368	x	x	x	x	-5
Cc1cc(C(=O)COC(=O)c2ccncc2)c(C)n1CCc1ccc(F)cc1	41	3781	-0.6	12	14	14	4
COc1ccc(CCN(C)C(=O)c2ccc(COc3ccccc3)o2)cc1OC	19	4129	1.0	-1	12	-2	0
O=C(CSc1ncccn1)NC(=O)NCc1ccccc1	-9	10494	6.9	-2	9	-2	-6
Cc1ccc(C=C2C(=O)c3ccccc3C2=O)s1	-13	3255	10	7	9	-9	-15
COc1ccc(C(=O)NCC(=O)N2CCC(Cc3ccccc3)CC2)cc1OC	-21	x	6.0	-7	-1	6	x
COc1ccc(S(=O)(=O)NCCc2ccccc2)cc1	-22	3524	2.7	9	2	6	-5
CN(C)C1=NCCN1CCCC1CCCCC1	-25	3519	1.1	20	10	0	x
CN1CCN(C(=S)c2ccc(N(C)C)cc2)CC1	-8	8281	7.4	-2	-4	12	-3
Nc1nc(N)c2ncc(C(=O)CCc3ccccc3)nc2n1	-4	5670	0.2	-11	-2	-5	11
O=S(=O)(c1ccccc1)C1Cc2ccccc2C1Cl (stereo unspecified)	x	x	3.9	10	9	7	0
Cc1ccc2c(c1)C1CC(C)(O2)N(c2cccc(C(=O)NCc3ccccn3)c2)C(=O)N1 (stereo unspecified)	7	5476	4.0	7	11	7	-5
Oc1ccc(-c2cn3c(n2)SCC3)cc1	-8	3248	4.9	6	5	5	10
COc1cccc(CN(C)C(=O)CCc2nnc(-c3ccsc3)o2)c1	-30	3433	5.5	9	8	6	7
COc1ccccc1N1CCN(C(=O)c2c(-c3ccccc3)noc2C)CC1	-33	3221	2.1	-5	-2	-5	25
OCCCN=c1cc(-c2ccccc2)oc2ccc(Cl)cc12	-43	3323	6.3	x	x	-4	15
COc1ccc(C(C)=NOC/C(O)=C(\C#N)c2nc3ccccc3[nH]2)cc1OC	x	x	6.0	-1	8	-2	x
CC(C)(C)N(Cc1ccccc1)C(=O)COC(=O)[C@@H]1CCCN1C(=O)c1cccs1	-14	u	1.1	1	-2	8	-9
CN(c1ccccc1)C1CCCCC1NS(=O)(=O)c1ccc(Cl)cc1 (stereo unspecified)	-51	2523	10	-46	-57	1	-6
Cc1ccc(CN2C3CCCC2CC(NC(=O)c2ccc(F)cc2)C3)cc1 (stereo unspecified)	-12	3848	-4.3	0	8	-2	-3
CC(=NNC(=O)c1ccncc1)c1ccccc1	x	x	4.3	x	x	6	x
COC(=O)C1=C(c2cc3ccccc3o2)CC2CCC1N2C(=O)NCc1ccc(F)cc1 (stereo unspecified)	x	x	3.4	2	-1	11	x
FC(F)(F)c1nnc2ccc(N3CCN(c4ccccc4)CC3)nn12	-11	2406	0.8	x	x	5	3
O=C(NN=Cc1ccc(F)cc1)c1sccc1OCc1ccc(F)cc1	x	x	1.1	15	10	-7	x
O=C(O)CNC(=O)c1ccc(NC(=O)/C(=C/c2ccccc2)NC(=O)c2ccccc2Br)cc1	-10	3706	3.3	7	-8	6	3
O=C(NC1CCS(=O)(=O)C1)C1C2CC3CC(C2)CC1C3 (stereo unspecified)	-17	4363	-0.7	3	12	8	5
CCCN(CC(=O)Nc1ccccc1C)C(=O)COC(=O)CSc1ccc([N+](=O)[O-])cc1	-3	5563	6.3	9	-2	4	-5
CCOc1cc(C)c(Cl)cc1S(=O)(=O)NCCOC	-22	2536	3.2	9	13	0	-1
Cc1nn(C)c(Cl)c1CN1CCCC(CO)(Cc2cccc(Cl)c2)C1 (stereo unspecified)	-17	2900	3.7	0	2	-2	6
CC(NC(=O)Nc1ccccc1)C(c1ccccc1)N1CCOCC1 (stereo unspecified)	-8	2229	4.8	18	5	2	-3
Cc1ccsc1C(=O)N1CCN(c2ncc(C(F)(F)F)cc2Cl)CC1	-2	5430	-1.5	11	5	7	-17
CCOc1ccc(C(=O)Nn2cnnc2)cc1OCC	-22	4275	1.8	-5	-22	0	-1
CCNC(=O)c1ccc(C2SCC(=O)N2CCc2ccccc2)cc1 (stereo unspecified)	-13	2219	1.2	-5	8	5	-1
Oc1c(C(c2ccco2)N2CCOCC2)sc2ncnn12 (stereo unspecified)	-28	6734	-11	4	7	5	1
Cc1onc(-c2ccccc2)c1C(=O)Nc1nncs1	-11	3221	8.1	5	-4	13	0
Cn1cccc1/C=N/NC(N)=S	-12	4429	x	x	x	x	1
O=C(NCc1cccnc1)C1CC=CC2CCN(Cc3ccccc3)C(=O)C21 (stereo unspecified)	x	x	0.9	-4	3	6	x
O=c1[nH]c(-[n+]2ccccc2)c(C=N/N=C(\[O-])c2ccccc2)s1	x	x	0.6	3	-6	-1	x
Cc1nc(Oc2ccc(Cl)cc2)c2oc3ccccc3c2n1	-17	20568*	19	4	7	-14	-5
CCn1ccnc1CN(C)Cc1cn(-c2cccc(C)c2)nc1-c1cccc(F)c1	-13	3525	-5.0	7	6	-13	-2
O=[N+]([O-])c1ccc(N=NNc2ccccc2)cc1	-38	2142	0.8	10	8	-17	-1
Cc1ccc(N(CC(=O)NCCSCc2ccco2)S(=O)(=O)c2ccc(F)cc2)cc1	-23	4863	0.3	12	1	4	0
COc1ccc(NC(=O)COC(=O)c2ccc(F)cc2F)cc1	-6	5134	2.7	2	-4	1	1
O=C(Nc1ccc(S(=O)(=O)NCc2ccccc2)cc1)Nc1ccc2c(c1)OCO2	-32	11507	0.4	4	2	-9	4
C=CCn1c(SCC(=O)c2ccc(O)c(O)c2)nnc1-c1ccc(OC)cc1	-3	3044	7.3	8	-4	7	x
CC1(C)Cc2nc3sc4c(N(CCO)CCO)ncnc4c3cc2CO1	-24	4012	-1.5	x	x	-2	-1
COc1ccc(OCC(=O)N/N=C(\C)CC(=O)Nc2cccc([N+](=O)[O-])c2)cc1	-20	4463	x	x	x	x	-6
COc1ccc(N2CCN(C(=O)C3=NNC(=O)CC3)CC2)cc1	-13	2028	5.3	7	4	12	-2
Nc1c2c(=O)[nH]c(O)cc2nn1-c1ccccc1	-30	3927	-0.4	20	2	8	x
Cc1cccc(C(=O)O/N=C(\N)c2ccc(Cl)cc2)c1	-76	2967	0.2	15	1	7	4
CC(=O)n1cc(C=NNC(=O)c2ccc(Cl)cc2)c2ccccc21	x	x	1.3	15	4	-4	x
CC1CCN(c2c(NCC3CCC(C(=O)NC4CCCCCC4)CC3)c(=O)c2=O)CC1 (stereo unspecified)	48	4607	1.0	10	-3	3	3
O=C(C/C(=N/O)c1ccccc1O)C(F)F	1	2964	x	x	x	x	-4
S=C1NC[C@H](CC2CCCCC2)N1CC1CCCCC1	-20	3105	x	x	x	x	-5
COc1ccc(S(=O)(=O)NCc2ccccn2)c(C)c1C	-31	3576	x	x	x	x	-2
Cc1cccc(CNC(=O)C2CCC(=O)N(C3CC3)C2)c1 (stereo unspecified)	-15	5410	4.3	3	5	7	-12
Oc1ccccc1N1CCN(c2ncnc3scc(-c4ccc(F)cc4)c23)CC1	-7	5559	2.2	-9	-9	-17	10
O=C(CCn1c(=O)[nH]c2ccccc2c1=O)NCCSCc1ccccc1	-10	4207	8.3	-6	4	5	0
CCC(C)N1CCC(Oc2ccc(C(=O)NCc3ccccn3)cc2)CC1 (stereo unspecified)	-7	6467	2.3	0	-10	10	-1
CC(=O)C(=NNc1ccc(C)cc1)Sc1nncn1C	x	x	-0.8	-7	-5	4	x

# (further entries)
compound	PrP 5UTR inh	Autofluor counter	RN4220 kill	Mtb hypoxia inh	Mtb hypoxia inh growth	ugtP null kill	BJeLR lethal
Cc1ccc(S(=O)(=O)NC(=O)Nc2ccc(C)cc2C)cc1	-5	u	4.0	-2	17	1	-1
Nc1nc(-c2ccccc2)cc(-c2ccccc2)n1	-29	2939	3.5	-1	-2	-2	-2
COCCNC(=O)CSc1nc2ccc(N3CCOCC3)cc2c(=O)n1Cc1ccc(OC)cc1	-21	4256	0.0	0	1	11	-7
O=C(CN1C(=O)CCC1=O)Nc1nc(-c2ccccn2)cs1	-30	5523	3.6	1	7	9	-3
Cc1ccc2nc(N3CCN(C)CC3)c(C#N)cc2c1	-7	9382	6.9	3	7	0	3
CCCCCOc1ccc(NC(=O)C2OC3OC(C)(C)OC3C3OC(C)(C)OC23)cc1 (stereo unspecified)	-23	2407	1.0	3	7	5	-7
CC(=O)Nc1ccc(C(=O)CSc2nnc3scc(-c4ccccc4)n23)cc1	x	9851	3.7	14	12	-3	-4
CC(C)(C)OC(=O)N1CCC2(CC1)Oc1ccc(F)cc1C(=O)C21CC(c2ccccc2)=NO1 (stereo unspecified)	-15	3202	-7.0	16	7	22	0
O=C1Cc2ccccc2C(=O)N1c1ccc(F)cc1Cl	-19	3613	-4.3	-9	7	-2	0
Cc1ccc2c(c1)C(=O)C(=O)N2CC(=O)Nc1ccc(N2CCOCC2)cc1	-17	3728	5.5	0	2	2	-3
CCCc1nc2c([nH]1)C(c1cccnc1)C(C#N)=C(N)O2 (stereo unspecified)	-24	7629	3.9	2	-1	8	-11
COc1ccc(CNC(=O)CN(Cc2ccco2)C(=O)CNS(=O)(=O)c2ccc(C)cc2)cc1	-24	3740	3.2	2	3	5	-10
COc1ccc(OC)c(-c2cc(C(=O)NC3CCCC3)c3ccccc3n2)c1	-2	5802	0.7	2	7	5	0
O=C(Nc1ccc(S(=O)(=O)N2CCCCC2)cc1)c1ccc(Cl)nc1	-32	x	13	7	5	-3	x
COC(=O)c1cc(-c2cccc(OC)c2)c2c(=O)[nH]c(=O)n(C)c2n1	-9	3721	3.5	-4	-1	0	-13
CCCOc1ccc(C(=O)ON=C2CCN(C)CC2)cc1	-8	2048	x	x	x	x	-3
O=C(CN1c2ccccc2Sc2ccccc21)NN=Cc1ccccc1	x	x	-2.5	0	14	-20	x
O/N=C/c1ccc2cccc(O)c2n1	-13	3344	x	x	x	x	-6
O=C(NN=Cc1ccc(OC(F)F)cc1)c1ccc(CSc2nc3ccccc3[nH]2)cc1	x	x	9.7	1	-1	6	x
